CDC25B-CDK2 inh = human CDC25B-CDK2/CyclinA binding inhibition; P30305+P24941; HTRF CDC25B-CDK2/CyclinA binding, anti-His/anti-Flag; hits give high values; z-score (test concentration not listed); 94,000 compounds, 0.72% hits; AID 1259370;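 further: score is relative to mean and SD of negative controls; strong numbers were not always called active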
TAR Tat displ = HIV-1 TAR-Tat binding disruption. HIV-1 TAR RNA, Tat peptide displacement FRET; hits give high values. z-score (no concentration beside the values). 100,000 compounds, 0.6% hits;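 further: score is relative to mean and SD of negative controls; some compounds called inactive have numbers as strong as hits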
* = called active by the depositor; . = not tested or not shown.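 How the source made its calls: active means z-score from 3 up in half or more of its runs; inactive means the rest.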

SMILES | CDC25B-CDK2 inh | TAR Tat displ
Cc1cc(C)n(-c2nc3cc(Cl)ccc3nc2NCc2cccnc2)n1 | . | 0.06
C=CCNC(=O)c1c(NC(C)=O)sc2c1CCCC2 | -2.27 | -0.98
O=C1ON=C(c2ccccc2)C1C=C1CCCC1 (stereo not drawn) | -1.53 | .
Cc1nc2sccn2c(=O)c1S(=O)(=O)Nc1ccc(Br)cc1 | -1.64 | 0.86
Nc1nc(-c2ccccc2Cl)nn1C(=O)c1cccc2ccccc12 | -0.97 | -0.74
COc1cc(C2C(C#N)=C(N)Oc3c2ccc2ccccc32)cc(Br)c1O (stereo not drawn) | -2 | -4.89
Cc1ccc(-c2nc(SCc3cc(=O)n4c(C)csc4n3)n[nH]2)cc1 | . | -0.21
COc1cc(Cl)c(C)cc1NS(=O)(=O)c1c(C)nc2sc3ccccc3n2c1=O | . | -0.42
O=[N+]([O-])c1ccc(/C=N/Nc2c(Cl)cc(Cl)cc2Cl)s1 | -1.25 | .
CC(=O)NCc1c(Cl)cccc1Cl | -0.61 | .
CCCn1c2ccccc2c2cnn(CC(=O)NCCN(CC)CC)c(=O)c21 | . | 2.14
O=c1c2oc3ccccc3c2n(Cc2ccc(F)cc2)c(=O)n1Cc1ccco1 | . | 2.9
N#Cc1ccc(C#CCOC(=O)Nc2ccc(OC(F)(F)F)cc2)cc1 | -1.6 | .
O=C1CN(Cc2ccccc2Cl)S(=O)(=O)c2ccccc2N1Cc1ccc(F)cc1 | . | 0.32
Cc1cc2nc(-c3ccc(N)cc3O)oc2cc1C | -1.08 | -1.02
NCCS(=O)O | -1.66 | .
CC1=C(C(=O)Nc2cc(C(=O)NCc3ccc4c(c3)OCO4)ccc2C)SCCO1 | . | -1.31
CCOC(=O)c1sc(NC(=O)CSc2n[nH]c(CC)n2)nc1C | 0.5 | -0.59
O=C(c1ccc(-c2ccccc2)cc1)N1CCCC1c1ccco1 (stereo not drawn) | 1.96 | 0.7
O=C(NCC1CCCO1)c1cc(-c2cccnc2)nc2ccc(Cl)cc12 (stereo not drawn) | . | 0.57
Cc1cc(C)cc(-c2nc(-c3ccc(C)s3)no2)c1 | . | 0.81
FC(F)(F)c1cccc(N=Cc2cccnc2)c1 | -0.36 | .
Cc1ccc(S(=O)(=O)NCCc2nc(-c3ccc4c(c3)nc(C)c(=O)n4C3CCCC3)no2)cc1 | . | -0.03
Cc1cc(C)cc(S(=O)(=O)NCCn2nc(-c3ccc(Cl)cc3)ccc2=O)c1 | . | 0.63
Cc1ccc(C2N3CC4(C)CN2CC(C)(C3)C4=O)cc1 (stereo not drawn) | -1.98 | .

Later entries.
SMILES | CDC25B-CDK2 inh | TAR Tat displ
COc1ccc(-n2cc(-c3ccccc3)c3c(NCc4ccccc4OC)ncnc32)cc1 | -2.59 | .
O=C(N1CCCC1)C12CC3CCC(CC(C3)C1)C2 | -2.62 | .
O=C(c1cc(C2CC2)on1)N1CCCC1 | 1.97 | 0.09
Cc1ccc(-n2c(=O)c3ccccc3n(Cc3cc(=O)n4ccccc4n3)c2=O)cc1 | -0.99 | .
Nc1ccccc1Sc1nc2c(Cl)cc(Cl)cc2s1 | 0.15 | .
CCOc1cc(C2NC(=O)c3c(sc4c3CCCC4)N2)ccc1O (stereo not drawn) | -1.32 | 1.15
COC(=O)c1c(NC(=O)c2nc3nc(C)cc(C(F)F)n3n2)sc2c1CCCC2 | 1 | 1.99
CCOC(=O)C1=C(N)Oc2cc(C)oc(=O)c2C1c1cccc(F)c1 (stereo not drawn) | -1.11 | .
O=C(O)C1=CC(=C(c2ccc(O)c(C(=O)O)c2)c2ccc(O)c(C(=O)O)c2)C=CC1=O | 11.3* | .
CCC(C)Nc1nc2ccccc2n2c(C)nnc12 (stereo not drawn) | -0.2 | .
CCN1c2ccccc2NC2=C(C(=O)CCC2)C1c1cccs1 (stereo not drawn) | . | 1.52
CCOc1ccc(OCC)c(Nc2nc3ccccc3c3nnc(C)n23)c1 | . | 0.39
O=C(O)C1CSC(c2ccc([N+](=O)[O-])s2)N1 (stereo not drawn) | -0.7 | .
Cc1cc(C(=O)NCCN2CCOCC2)on1 | -0.95 | 1.72
S=C(NCC1CCCO1)N/N=C/c1ccc(Cl)cc1 (stereo not drawn) | -0.54 | .
CC1CCc2nc(NCCO)nc(C(F)(F)F)c2C1 (stereo not drawn) | -1.68 | -5.73
C(=NCc1ccccc1)c1ccc2c(c1)OCO2 | -1.38 | .
O=C(NC1CCCC1)c1ccc2c(c1)sc1nc(-c3ccc(F)cc3)cn12 | . | 2.41
COCCCNC(=S)Nc1ccc(C)cc1 | 0.69 | .
CCOC(=O)C1=C(C)N=C2c3ccccc3C(=O)C2C1c1ccc(C)cc1 (stereo not drawn) | -0.78 | 0.27
COc1cc(NC(=O)CSc2nc3nccnc3c(=O)n2Cc2ccco2)cc(OC)c1 | 0.74 | 0.51
O=C(c1ccc([N+](=O)[O-])o1)N1CCN(C/C=C/c2ccccc2)CC1 | -3.29 | 0.68
CC(=O)N1CCOc2cc(S(=O)(=O)N3CCC(C)CC3)c(Cl)cc21 | . | 0.76
CCCCSc1nnc2c(n1)OC(c1cccn1C)N(C(C)=O)c1ccccc1-2 (stereo not drawn) | -0.51 | -0.14
Cn1c2c(c(=O)[nH]c1=O)C(c1ccc(OCc3ccccc3)cc1)C1=C(N2)c2ccccc2C1=O (stereo not drawn) | -15.5 | -6.57

(next part)
SMILES | CDC25B-CDK2 inh | TAR Tat displ
CC(C)(C)c1ccc(C2Nc3cccc4cccc(c34)N2)cc1 | -0.84 | 7.08*
COC(=O)c1ccc(OC)c(CN2N=NC3C(=O)N(c4ccc(F)c(F)c4)C(=O)C32)c1 (stereo not drawn) | -0.89 | 0.67
O=C(NCc1ccccc1)c1cnc2ccc(S(=O)(=O)N3CCOCC3)cc2c1Cl | -0.48 | .
CCCN1CCN(C(=O)c2cc3n(n2)CC(C)(C(=O)NC2CCCC2)N(C)C3=O)CC1 (stereo not drawn) | . | 0.55
CCS(=O)(=O)c1nc(S(=O)(=O)c2ccc(Cl)cc2)c(N2CCN(C)CC2)s1 | -0.27 | -1.05
COCCNC(=O)c1c(O)nc2cc(C)ccn2c1=O | -1.04 | 0.77
Oc1ccccc1N=CC=Nc1ccccc1O | -0.07 | .
CCS(=O)(=O)c1ccc(O)c(NC(=O)c2ccccc2C(=O)O)c1 | -0.03 | .
COc1ccc(C2CC(=O)C3=C(C2)Nc2ccccc2NC3c2ccc(N(C)C)cc2)cc1 (stereo not drawn) | -1.96 | 0.05
C=C(C)Cn1c(=S)[nH]c2sc3c(c2c1=O)CCCC3 | -4.33 | .
Cc1nn(C(C)C(=O)NCCN(C)C)c(=O)c2nn(-c3ccccc3)c(C)c12 (stereo not drawn) | . | -1.36
CCOc1ccc2nc(NC(=O)C(C)C)sc2c1 | . | -0.31
Fc1ccc(Nc2ncnc3nc[nH]c23)cc1F | -1.41 | 2.02
CN(CC(=O)Nc1ccc(F)cc1F)S(=O)(=O)c1ccc2[nH]c3c(c2c1)CCCC3 | . | 0.99
Cc1ccc(NC(=O)C2C3C=CC4(O3)C2C(=O)N(C2CC2)C4C(=O)NC2CCCCC2)cc1C (stereo not drawn) | -2.62 | -1.04
O=C(Nc1ccc(F)c(Cl)c1)c1cccnc1Sc1cccs1 | -2.38 | .
CCOc1ccc(/C(O)=C2\C(=O)C(=O)N(Cc3cccnc3)C2c2ccc(O)c(OC)c2)cc1 (stereo not drawn) | -2.51 | 0.2
CC1CCCC(C)N1C(=O)C1=CC(c2ccc3c(c2)OCO3)=NS(=O)(=O)N1C (stereo not drawn) | -2.75 | 2.2
O=C(C1CCCN(c2ncnc3c2nc2n3CCCCC2)C1)N1CCCc2ccccc21 (stereo not drawn) | . | 0.19
O=C(NC1CCCC1)c1cccn1-c1nnc(N2CCCCC2)s1 | . | 0.5
Cc1ccc2oc(-c3ccccc3)nc2c1 | . | -2.03
CC1CN(c2oc(/C=C/c3ccc(F)cc3)nc2C#N)CC(C)O1 (stereo not drawn) | -1.58 | 2.09
COC(=O)c1cc2occc2n1CC(=O)Nc1ccc(N(C)C)cc1 | 0.54 | 0.83
Cc1nc2ccc(Cl)cn2c(=O)c1NC(=O)c1c(F)cccc1F | . | 0.25
CC(=O)N1CCN(c2oc(/C=C/c3ccc(Cl)cc3)nc2C#N)CC1 | -1.61 | 0.77

More compounds
SMILES | CDC25B-CDK2 inh | TAR Tat displ
CSc1ncc(C(=O)NCc2ccc3c(c2)OCO3)c(C)n1 | . | 1.41
Clc1ccccc1CN1CCC(CNc2nn3nnnc3c3ccccc23)CC1 | 0.06 | 0.57
CCc1ccc2[nH]c3sc(C)nc3c2c1 | 0.41 | 2.05
O=C(CCc1nc(-c2ccc(S(=O)(=O)N3CCOCC3)cc2)no1)NC1CC1 | . | 0.25
Cn1c(SCC(=O)Nc2ccc3c(c2)OCCO3)nc2c(c1=O)SCC2 | -3.01 | -0.23
Cc1csc(NC(=O)CSc2nnc(Cc3cccn3C)n2-c2ccc(Cl)cc2)n1 | -0.1 | -0.51
Cc1c(N2CCC(C(=O)N3CCC(N4CCCCC4)CC3)CC2)c(=O)n(C)c(=O)n1-c1ccccc1 | . | 0.19
CCc1nc2nc(C)cc(N3CCN(c4cccc(C)c4C)CC3)n2n1 | -0.72 | 1.09
CCCCOc1ccccc1C1C(C(=O)OCCC)=C(C)NC2=C1C(=O)CC(C)(C)C2 (stereo not drawn) | -1.26 | 0.15
CCSc1nn2c(=O)cc(COc3cccc(C)c3)nc2s1 | -0.59 | 1.05
CC12CCC(c3nnc(SCC(=O)Nc4ccccc4Cl)nc31)C2(C)C (stereo not drawn) | -0.02 | .
CCn1ncc(C2=NOC(C(=O)NCc3cccnc3)C2)c1C (stereo not drawn) | -1.29 | 1.21
CC(=O)Nc1ccc(-n2c(SCC(=O)C(C)(C)C)nc3sc4c(c3c2=O)CCCC4)cc1 | . | 1.75
COc1ccc(CCNc2nc(C)nc3sc(C)cc23)cc1OC | -2.88 | .
Cn1cccc1Cc1nnc(SCC(=O)Nc2ccccc2F)n1-c1ccc(F)cc1 | -0.95 | 2.45
CC(C)Cc1nc(SCC(=O)NCc2ccco2)c2c(=O)n(C)c(=O)n(C)c2n1 | . | -0.49
Cc1cc(C)c2c(=O)c3c(oc2c1)C(=O)N(Cc1ccco1)C3c1cccc(O)c1 (stereo not drawn) | -1.56 | -1.39
CC1CCN(c2nn3c(=O)c(C(=O)NCCCOC(C)C)cnc3s2)CC1 | . | 0.31
COc1ccccc1/C=C/c1nc(C#N)c(N2CCN(Cc3ccccc3)CC2)o1 | -0.84 | -1.01
Cc1cc(Nc2nc3ccccc3c3nnc(C)n23)ccc1Br | . | 0.24
Cc1cc(S(=O)(=O)N2CCn3c(nc4ccccc43)C2)ccc1F | -1.5 | -1.38
CNC(=O)C1CCN(S(=O)(=O)c2c(C)nn(CC(=O)NC(C)(C)C)c2C)CC1 | . | 2.32
CCCCNC(=O)n1c(=O)oc2cc(Cl)ccc21 | -1.39 | 1.11
COc1cc(OC)cc(N(C)S(=O)(=O)c2ccsc2-c2nc(-c3ccncc3)no2)c1 | . | 1.52
CC(C)(C)OC(=O)N1CCCN(C(=O)C2=CN3C=C(C(F)(F)F)C=C(Cl)C3N2)CC1 (stereo not drawn) | -1.09 | .

One compound at a time (already shown).
CNC(=O)C1CCN(S(=O)(=O)c2c(C)nn(CC(=O)NC(C)(C)C)c2C)CC1 across the screens: CDC25B-CDK2 inh = .; TAR Tat displ = 2.32
CCn1ncc(C2=NOC(C(=O)NCc3cccnc3)C2)c1C (stereo not drawn) across the screens: CDC25B-CDK2 inh = -1.29; TAR Tat displ = 1.21

Reformatted as labelled records: part of the list above.
CCCCOc1ccccc1C1C(C(=O)OCCC)=C(C)NC2=C1C(=O)CC(C)(C)C2 (stereo not drawn)
  CDC25B-CDK2 inh = -1.26
  TAR Tat displ = 0.15

CCn1ncc(C2=NOC(C(=O)NCc3cccnc3)C2)c1C (stereo not drawn)
  CDC25B-CDK2 inh = -1.29
  TAR Tat displ = 1.21

CCCCNC(=O)n1c(=O)oc2cc(Cl)ccc21
  CDC25B-CDK2 inh = -1.39
  TAR Tat displ = 1.11

A draw from above in order of number of heavy atoms, falling:
SMILES | CDC25B-CDK2 inh | TAR Tat displ
Cc1cc(C)c2c(=O)c3c(oc2c1)C(=O)N(Cc1ccco1)C3c1cccc(O)c1 (stereo not drawn) | -1.56 | -1.39
CC1CCN(c2nn3c(=O)c(C(=O)NCCCOC(C)C)cnc3s2)CC1 | . | 0.31
CCc1nc2nc(C)cc(N3CCN(c4cccc(C)c4C)CC3)n2n1 | -0.72 | 1.09
COc1ccc(CCNc2nc(C)nc3sc(C)cc23)cc1OC | -2.88 | .
CSc1ncc(C(=O)NCc2ccc3c(c2)OCO3)c(C)n1 | . | 1.41
CCCCNC(=O)n1c(=O)oc2cc(Cl)ccc21 | -1.39 | 1.11

Further entries follow.
SMILES | CDC25B-CDK2 inh | TAR Tat displ
CC(C)C(=O)Nc1ccc2nsnc2c1 | -2.25 | 0.47
O=C(c1ccco1)N1CCC(N2CCN(c3ccccc3)CC2)CC1 | -0.28 | .
O=C(CCc1nc(-c2cccs2)no1)Nc1c(C(=O)N2CCOCC2)oc2ccccc12 | -0.31 | -2.65
CCOC(=O)c1c[nH]n2c(=O)c3c(nc12)CCC3 | -0.47 | .
NC(=O)NC1CCCCCCC1 | -3.27 | .
COc1ccc(OC)c(S(=O)(=O)CC(O)CS(=O)(=O)c2ccccc2)c1 (stereo not drawn) | -1.74 | .
CCCCSc1nc(=O)n(-c2ccc(OC)cc2)c2c1CCC2 | -1.92 | -0.61
c1cnc(-c2nc(-c3ccc4c(c3)OCO4)no2)cn1 | -1.52 | 0.98
COc1cc(S(=O)(=O)n2ccnc2)ccc1Br | -0.64 | 0.92
CC(=O)Nc1nnc(SCC#N)s1 | -1.52 | .
CC(C)n1cnc2nc(COc3ccc(NC(=O)C4CCCCC4)cc3)cc(=O)n21 | -0.6 | 0.44
O=C(NCc1ccco1)c1ccc2c(=O)[nH]c3c(C(=O)NC4CCCC4)sc(=S)n3c2c1 | . | 15.7*
COc1ccc(C2C(C(=O)OC3CCCCC3)=C(C)NC3=C2C(=O)CCC3)cc1Br (stereo not drawn) | -1.46 | 1.22
